Screening results: PubChem BioAssay, Johns Hopkins Ion Channel Center
CHT inh – inhibitors of human choline transporter CHT. actives 0.86% (n = 310,000). Q9GZV3. CHT-expressing cells, membrane potential dye, choline response; active compounds read low. B-score at 10 µM. AID 488975;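 active means B-score over 3 SD under the library average, and starting fluorescence ratio not unusually high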;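 further: choline stimulus applied at its EC90 after an EC20 pre-addition; B-score computed on integrated fluorescence ratio after choline addition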
Target sequence (Q9GZV3 whole entry, looked up): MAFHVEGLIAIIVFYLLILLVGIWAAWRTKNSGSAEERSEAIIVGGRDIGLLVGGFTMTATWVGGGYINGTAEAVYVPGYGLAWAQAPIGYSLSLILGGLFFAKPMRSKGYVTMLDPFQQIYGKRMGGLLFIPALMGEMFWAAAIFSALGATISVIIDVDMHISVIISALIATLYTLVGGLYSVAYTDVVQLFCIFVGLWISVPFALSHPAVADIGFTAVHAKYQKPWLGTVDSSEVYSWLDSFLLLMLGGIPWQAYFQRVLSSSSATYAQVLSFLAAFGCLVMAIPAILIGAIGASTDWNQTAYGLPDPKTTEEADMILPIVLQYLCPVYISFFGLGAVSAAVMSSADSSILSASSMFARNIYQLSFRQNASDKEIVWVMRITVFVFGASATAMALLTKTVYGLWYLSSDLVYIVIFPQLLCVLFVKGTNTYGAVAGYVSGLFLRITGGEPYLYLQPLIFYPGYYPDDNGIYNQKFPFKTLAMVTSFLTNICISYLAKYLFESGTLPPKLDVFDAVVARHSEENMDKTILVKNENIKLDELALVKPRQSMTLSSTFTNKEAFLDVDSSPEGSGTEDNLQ
Calls only; i = inactive. An excerpt; most or all hits stand in other tables.

canonical_smiles | CHT inh
CN(C)c1cccc(C(=O)Nc2ccc3nc4n(c(=O)c3c2)CCCCC4)c1 | i
CSc1ccc(CN(C)CC(=O)Nc2ccccc2Br)cc1 | i
Cc1nnc(NC(=O)CSc2nc3ccccc3o2)s1 | i
O=C(Nc1nnc(-c2cccs2)s1)C1CC1 | i
Cc1cccc(N2C(N)=C(C#N)C(C#N)(C#N)C2c2ccccc2)c1 (stereo not given) | i
O=C(OCc1nnc(-c2ccccc2)o1)c1ccc(CO)cc1 | i
CCc1ccc(-c2csc(NC(=O)COC(=O)CCc3nc4ccccc4s3)n2)cc1 | i
COc1ccc(CSCCc2n[nH]c(=S)n2-c2ccccc2)cc1C | i
CC1=C([N+](=O)[O-])C(c2ccccc2C(F)(F)F)NC(=O)N1C (stereo not given) | i
Cc1ccc(CN2CC(C(=O)N3CC(C)CC(C)C3)CC2=O)cc1 (stereo not given) | i
COc1ccc(/C=C/C(=O)OCC(=O)Nc2cc(S(=O)(=O)N(C)C)ccc2Cl)cc1 | i
Cc1ccc(C2SCC(=O)N2Cc2cn3ccsc3n2)o1 (stereo not given) | i
COc1ccc(NC(=O)CC2(CC(=O)O)CCCC2)cn1 | i
Fc1cccc(F)c1-n1c(CN2CCCCC2)csc1=S | i
COC(=O)C1CCN(C(c2cccs2)c2sc3nc(C)nn3c2O)CC1 (stereo not given) | i
O=C(CN1CCN(Cc2ccccc2)CC1)Nc1cccc(C(F)(F)F)c1 | i
CC(C)NS(=O)(=O)c1ccc(N2C(=O)c3ccccc3C2=O)cc1 | i
CCc1nc2ccc(C)cc2c(C(=O)NC2CCCCC2C)c1C (stereo not given) | i
C=CCn1c(=O)c(C(C)=O)cn(N(C)c2ncc(C(F)(F)F)cc2Cl)c1=O | i
Cc1nc2cc(OCc3cc(C(=O)NC(C)c4cn(C)nc4C)no3)ccc2s1 (stereo not given) | i

Next section
canonical_smiles | CHT inh
CC1Cc2ccccc2N1C(=O)c1ccc2nccnc2c1 (stereo not given) | i
CC(=O)NC1(C(F)(F)F)NC(=O)N(CC(C)C)C1=O (stereo not given) | i
Cc1cccc(NC(=O)COc2ccc(Br)cc2C)n1 | i
NC(=O)c1cc(S(=O)(=O)Nc2cccc(F)c2)co1 | i
O=C(/C=C/NCc1cccnc1)C(F)(F)C(F)(F)F | i
COc1ccc(S(=O)(=O)Nc2ccccc2C(=O)N2CCOCC2)cc1F | i
CC1(C)CC(=O)C(C2C3=C(CC(C)(C)CC3=O)Oc3ccc4ccccc4c32)C(=O)C1 (stereo not given) | i
COc1ccc(C(=O)NCc2nnc(SCC(=O)Nc3cccc(C(F)(F)F)c3)o2)cc1OC | i
CC1CCN(CCCNC(=O)C2CCN(S(=O)(=O)N3CCC4(CC3)OCCO4)CC2)CC1 | i
O=C(COc1ccc(S(=O)(=O)N2CCCC2)cc1Cl)NCc1ccccn1 | i
COCCCn1c(SCC(=O)OC2CCCCC2)nnc1-c1cccs1 | i
CCOc1cccc(SCc2noc(C(=O)NC(C)C)c2C(=O)O)c1 | i
CCCNC(=O)c1ccc(N2CCC3(CC2)CC(c2ccc(Cl)cc2)=NO3)c([N+](=O)[O-])c1 | i
CC(=O)c1ccc(NC(=S)NCCCN2CCOCC2)cc1 | i
Cc1ccc(S(=O)(=O)Nc2cc3c(cc2C#N)OCO3)cc1C(N)=O | i
COCc1cc(=O)[nH]c(/N=C(\N)Nc2cccc(Cl)c2)n1 | i
Cc1cc(C)n(-c2ncnc3sc4c(c23)CCCC4)n1 | i
Cc1c(Cl)c([N+](=O)[O-])nn1CC(=O)Nc1c(C)n(C)n(-c2ccccc2)c1=O | i
COc1ccc(Cc2nc3ccc(C(=O)NCC(C)(C)OC)cc3o2)cc1 | i
CC1C(=O)Nc2ccccc2N1C(=O)c1ccc(Cl)c(Cl)c1 (stereo not given) | i

Continued.
canonical_smiles | CHT inh
CCCn1c(SCC(=O)N2CCN(S(=O)(=O)c3ccc(Cl)cc3)CC2)n[nH]c1=O | i
COCC(C)NS(=O)(=O)c1ccc(OC)cc1 (stereo not given) | i
Cc1cc(C)c(S(=O)(=O)N2CCOC2CNC(=O)C(=O)NCCN2CCOCC2)c(C)c1 (stereo not given) | i
O=C(Oc1ccc(/C=N/NC(=O)c2ccccn2)cc1)c1cccc(Br)c1 | i
COc1ccc(Nc2nnc(C)c3ccccc23)cc1 | i
Cc1ccc(C)c(OCCC(=O)OCC(=O)NC2CC2)c1 | i
O=C(NNc1c2ccccc2nc2ccccc12)C12CC3CC(CC(C3)C1)C2 | i
Cc1cccc(NC(=O)Cc2ccc(NC3=NC4CS(=O)(=O)CC4S3)cc2)c1 (stereo not given) | i
CCCn1c(O)c(/C=C2\C=NN=C2c2ccccc2)sc1=S | i
CC(C)NC(=O)CSc1nc2ccccc2n1CC(=O)N1CCc2ccccc21 | i
COc1ccc(NC(=O)C/C(C)=N/NC(=O)COc2ccc(OC)cc2)cc1 | i
CCN(CC)CCN(C(=O)c1cccc(N2C(=O)CCC2=O)c1)c1nc2cc3c(cc2s1)OCO3 | i
Cc1cc(C)c2c(N)c(C(=O)NC3CC3)sc2n1 | i
Cc1cc(NS(=O)(=O)c2c(C)c(C)cc(C)c2C)no1 | i
CC(C)(C)n1nc2c(c1NC(=O)c1ccc(S(=O)(=O)N3CCCC3)cc1)CSC2 | i
CCCCn1c(N)c(N(CC(C)C)C(=O)c2ccc(-c3ccc(C(C)=O)cc3)o2)c(=O)[nH]c1=O | i
COc1cc(NC(=O)c2ccc(S(=O)(=O)N(C)C)cc2)cc(OC)c1OC | i
COc1ccc(Cc2n[nH]c(=S)n2NC(=O)Nc2ccc(Cl)c(Cl)c2)cc1 | i
O=C(Oc1ccc2c(c1)OCC2=O)c1ccccc1 | i
CC1CN(Cc2c(O)ccc3c(=O)c(-c4ccccc4Cl)coc23)CC(C)O1 (stereo not given) | i

Gathered by group, the compounds so far with a furan ring, fused or not (3)
canonical_smiles | CHT inh
Cc1ccc(C2SCC(=O)N2Cc2cn3ccsc3n2)o1 (stereo not given) | i
NC(=O)c1cc(S(=O)(=O)Nc2cccc(F)c2)co1 | i
CCCCn1c(N)c(N(CC(C)C)C(=O)c2ccc(-c3ccc(C(C)=O)cc3)o2)c(=O)[nH]c1=O | i

Remaining list, next part:
canonical_smiles | CHT inh
O=[N+]([O-])/C=C/c1cn(Cc2ccc(F)cc2)c2ccccc12 | i
Cn1cccc1CC(=O)N/N=C/c1ccco1 | i
CC(C)NC(=O)Cn1c(=O)c2c(ncn2Cc2ccccc2)n(Cc2ccccc2)c1=O | i
Cc1ccc(-n2ncc3ccccc3c2=O)cc1Cl | i
COc1ccc(NC(=O)c2nnn(CC(=O)Nc3ccc4c(c3)OCO4)c2N)c(OC)c1 | i
Cn1c(CCCNC(=O)c2cccs2)nc2ccccc21 | i
CCN(CC)C(=O)C12C(=O)Oc3ccccc3C1C2(C)C(=O)c1ccc(F)cc1 (stereo not given) | i
Cn1c(=O)oc2cc(S(=O)(=O)NCCN3CCN(c4ccccc4)CC3)ccc21 | i
CC(C)(C)c1cc(CSC(=S)NC2CCS(=O)(=O)C2)c(Br)c(C(C)(C)C)c1 (stereo not given) | i
Cc1nn(C)cc1CNC(=O)Nc1ccc(Cl)c(Cl)c1 | i
COc1ccc2c(c1)c1nc3ccccc3nc1n2CC(=O)OC(C)C | i
O=C(Nc1ccc(C(=O)N2CCCC2)cc1)c1cccc(C(F)(F)F)c1 | i
COc1ccc(C)cc1NC(=O)CC(O)(C(F)(F)F)C(F)(F)F | i
CCN(CC)CCCNC(=O)CCc1c(C)n(CC)c2cc(-c3ccccc3OC)nn2c1=O | i
Cc1ccc(-c2csc(NC(=O)Cn3[nH]c(=O)c4ccccc4c3=O)n2)cc1 | i
Cc1ccc(CCNC(=O)CCCn2nc(C)c3c(C)n(-c4ccc(C)cc4)nc3c2=O)cc1 | i
O=C(c1cnn2c(C(F)F)cc(-c3ccccc3)nc12)N1CCOCC1 | i
COc1ccc(CCNC(=O)Cn2c(=O)n(CC3CCCO3)c(=O)c3cc(OC)c(OC)cc32)cc1OC (stereo not given) | i
COCCCN1CCc2[nH]c(=S)[nH]c(=O)c2C1 | i
Cc1onc(-c2ccccc2)c1C(=O)N1CCN(C/C=C/c2ccccc2)CC1 | i

Arranged by formula weight (rising): part of the list above
canonical_smiles | CHT inh
Cn1cccc1CC(=O)N/N=C/c1ccco1 | i
O=C(Nc1ccc(C(=O)N2CCCC2)cc1)c1cccc(C(F)(F)F)c1 | i
Cc1onc(-c2ccccc2)c1C(=O)N1CCN(C/C=C/c2ccccc2)CC1 | i

Following part:
canonical_smiles | CHT inh
COCCNC(=O)c1ccc2c3n(nc2c1)-c1ccccc1CO3 | i
Cc1cc(C)nc(NS(=O)(=O)c2ccc(NC(=O)C(C)C)cc2)n1 | i
CCN1CCc2c(sc(NC(=O)C3COc4ccccc4O3)c2C(N)=O)C1 (stereo not given) | i
Cc1cc(C(F)(F)F)c(C#N)c(SCC(=O)NC2CC2)n1 | i
CCN(CC)C1=N/C(=C\c2ccco2)C(=O)N1c1ccccc1 | i
O=C(Nc1ccc(Cl)cc1)OCCn1nnnc1C(c1ccccc1Cl)N1CCOCC1 (stereo not given) | i
O=C(NC1CCCc2c1cnn2-c1cc(F)cc(F)c1)c1ccc[n+]([O-])c1 (stereo not given) | i
O=C(C1CCCCN1S(=O)(=O)c1ccc(F)cc1)N1CCN(c2ccccc2F)CC1 (stereo not given) | i
CCC(C)[C@H](NC(=O)N1CC(=O)Nc2ccccc21)C(=O)Nc1ccccc1C (stereo not given in full) | i
COc1ccc(Cn2c(C)nc3ccc([N+](=O)[O-])cc3c2=O)cc1 | i
COc1ccccc1NC(=O)CN1C(=O)NC2(CCCCCCC2)C1=O | i
O=C(Nc1ccc(F)cc1)C(c1ccccc1)N1CCN(C(=O)c2ccco2)CC1 (stereo not given) | i
Nc1ccc2oc(-c3ccccc3Cl)cc(=O)c2c1O | i
COc1ccc(S(=O)(=O)N2CCOCC2)cc1NC(=O)COc1ccccc1 | i
Cc1csc(NC(=O)C2COc3ccccc3O2)n1 (stereo not given) | i
COC(=O)C1=C(C)NC(C)=C(C(=O)OC)C1c1ccco1 | i
CCN(CC)C(=O)CSc1nnc(-c2ccc(S(=O)(=O)N3CCCC3)cc2)o1 | i
COc1cc(NC(=O)c2ccc(F)cc2)ccc1NC(=O)c1cc2ccccc2o1 | i
COc1ccc(C(=O)NCCS(=O)(=O)N2CCC3(CC2)OCCO3)cc1 | i
O=C(Nc1ncccc1O)c1ccc(Cl)c(S(=O)(=O)N2CCCCC2)c1 | i

The list goes on:
canonical_smiles | CHT inh
C=CCNC(=O)CSc1ncc2c(n1)-c1c(csc1SC)CC2 | i
N/C(=N\OC(=O)CCCc1ccccc1)c1ccc(Br)cc1 | i
CCOC(=O)c1cnc(-n2nc(C)cc2C)nc1NNc1cc(C)nc(-c2ccccc2)n1 | i
Cc1cc(C)c2nc(N3CCOCC3)c(C#N)cc2c1 | i
COc1ccc(C(=O)N/N=c2\oc3ccccc3cc2C(N)=O)cc1 | i
Cc1ccc(NC(=O)c2csnn2)c(C)c1 | i
O/N=C/c1ccccc1OCc1ccccc1F | i
C=CCNC(=S)Nc1ccc(C(N)=O)cc1 | i
CC(=O)Nc1ccc(NC(=O)CN(C)CCC#N)cc1 | i
COc1cccc(CN2CC(C(=O)NCCCn3ccnc3C)CCC2=O)c1 (stereo not given) | i
CCOc1ccc(CCN2CN(C3CCCCC3)CNC2=S)cc1OCC | i
CC(=O)N1CCN=C1SCc1ccccc1F | i
Cc1ccc(C)c(S(=O)(=O)N2CCN(CC(=O)NC(=O)NCc3ccco3)CC2)c1 | i
CC(C)CC(=O)NS(=O)(=O)c1ccc(N)cc1 | i
O=C(CN1CCN(S(=O)(=O)c2ccc(Cl)s2)CC1)N1CCOCC1 | i
CCOC(=O)CSC1=C(C#N)C(c2ccccc2OCC)C(C(=O)OCC)C(=O)N1 (stereo not given) | i
CSc1cc(-c2ccccc2)n(Cc2c(Cl)cccc2Cl)c(=O)c1C#N | i
CCc1ccc(C(=O)COC(=O)c2ccccc2OC)cc1 | i
Nc1ccc(Cl)c(S(=O)(=O)Nc2ccc(Cl)cc2)c1 | i
O=C(CSc1nc(-c2ccccc2Cl)ns1)NCc1ccc2c(c1)OCO2 | i

(list continues)
canonical_smiles | CHT inh
C=CCn1c(SCC(=O)NC2CCCCC2)nc2ccccc2c1=O | i
CN(C)/C=N/c1ncc(C(=O)c2ccccc2)s1 | i
CC(OC(=O)c1cccn1C)C(=O)Nc1ccc2c(c1)OCO2 (stereo not given) | i
COc1ccc(CNC(=O)C(=O)NCC2OCCCN2S(=O)(=O)c2cccs2)cc1 (stereo not given) | i
CSc1nn2c(C)c(C)c(C)nc2c1C#N | i
Cc1cc(Br)ccc1S(=O)(=O)n1ccnc1C | i
COc1cccc(NC(=O)CN(C)C(=O)CCNC(=O)c2ccc(Br)cc2)c1 | i
O=c1n(-c2cccc(Cl)c2)c(=O)n2n1CCC2 | i
Cc1ccccc1NC(=O)CSc1nc(=O)n(CCN2CCOCC2)c2c1CCCC2 | i
COc1ccc(/C=N/Nc2cc(N3CCOCC3)ncn2)c(OC)c1 | i
Cc1ccn2c(=O)nc(SCc3cccc(C(F)(F)F)c3)nc2c1 | i
O=C(O)Cc1ccc(NC(=O)c2cccc(NC(=O)c3ccco3)c2)cc1 | i
CCn1cc(C(=O)NC(=S)Nc2ccccc2Br)cn1 | i
O=S(=O)(/N=C(/Nc1cc(N2CCOCC2)ncn1)c1ccc(F)cc1)c1ccccc1 | i
O=C(N/N=C/c1cccs1)c1ccc2nc[nH]c2c1 | i
Cc1cccc(C(=O)Nc2c3c(nn2C(C)(C)C)CS(=O)(=O)C3)c1 | i
